Bioassay records from PubChem.
HCMV NEC inh – disrupts HCMV UL50-UL53 complex binding; HTRF UL50-UL53 interaction, normalized percent inhibition; inhibition, % (no concentration beside the values); actives 0.15% (n = 190,000);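 active = both replicates at 50% or more, plus weaker picks with an unusually low signal ratio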;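 note: stock transfer was 100 nL into about 20 µL; 0% = negative control wells and 100% = wells with untagged competitor protein; inactives centre near -12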
Sa growth inh – blocks Staphylococcus aureus growth; AID 720641; relative growth, % (concentration not given with the values); actives 0.53% (n = 170,000); S. aureus RN4220 growth, OD600, 20 h, 42 °C; active compounds read low;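 active = growth at 42 °C up to 50% and 20 or more points under that at 30 °C, or under 10% at both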;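 note: 300 nL library stock went into each well; scaled to the means of positive and negative controls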
GIV-Gai inh – blocks GIV peptide binding to rat Galpha-i3. P08753. Galpha-i3/FITC-GIV peptide fluorescence polarization, 90 min; active compounds read low; scaled: aluminum fluoride 0%, vehicle 100%. percent of control (FP), % (concentration not given with the values). actives 0.42% (n = 210,000). AID 1224905;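 active = replicate mean at 85% of control or lower, very high polarization wells dropped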;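 note: wells of about 15 µL received 100 nL stock; the first replicate is given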
Target sequence (P08753 whole entry, looked up): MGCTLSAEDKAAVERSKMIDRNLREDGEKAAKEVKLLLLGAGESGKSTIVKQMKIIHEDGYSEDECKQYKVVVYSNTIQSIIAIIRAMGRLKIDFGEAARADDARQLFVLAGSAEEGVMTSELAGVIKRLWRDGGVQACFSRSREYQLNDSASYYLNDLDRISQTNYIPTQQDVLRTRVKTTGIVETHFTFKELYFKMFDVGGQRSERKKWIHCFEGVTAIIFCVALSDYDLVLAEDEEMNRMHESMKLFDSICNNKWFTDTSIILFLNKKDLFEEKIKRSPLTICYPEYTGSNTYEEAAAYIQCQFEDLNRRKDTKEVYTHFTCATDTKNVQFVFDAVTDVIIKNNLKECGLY
Sa growth inh second temp – recorded beside Sa growth inh, whose call it bears; relative growth, %; measured here: growth at 30 °C;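 optical density after 20 h as mean of two plates; 100% = untreated growth and lower means inhibition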
* = called active by the depositor; x = not tested or not shown; & = joins results of further samples. This is a random part of the collection; 0.83% or so of the library scored in one or more.

SMILES	HCMV NEC inh	Sa growth inh	Sa growth inh second temp	GIV-Gai inh
O=c1[nH]c2cc3c(cc2cc1CN(Cc1ccco1)S(=O)(=O)c1cccc(C(F)(F)F)c1)OCO3	-16	109	97	105
CC(C)(C)C(=O)Nc1cccc(C(=O)O)c1	-18	125	98	100
CCc1ccc(C(=O)COC(=O)c2cccc(-n3cccc3)c2)s1	1	97	97	x
CN1/C(=C\C(=O)c2cccnc2)C(C)(C)c2ccccc21	-30	93	93	x
O=C(Nc1cc(=O)[nH]c(=O)[nH]1)C(c1ccccc1)c1ccccc1	9	110	97	101
CN(C1CCCCC1)S(=O)(=O)c1ccc(C(=O)Nc2ccc3c(c2)C(=O)NC3=O)cc1	-35	95	86	100
Cc1cc(N2CCN(C(=O)c3ccco3)CC2)c2ccccc2n1	-7	106	91	108
Cc1ccccc1C(=O)N1CCc2c([nH]c3ccccc23)C1C(F)(F)F (stereo unspecified)	-35	71	77	111
C[C@@H](c1ccccc1)N1C(=O)CC[C@H]2CC(=O)CC[C@@H]21	-32	90	87	98
COc1cccc(/C=C2/Sc3ccc(C(=O)NCc4ccco4)cc3NC2=O)c1	-25	106	93	106
CCc1ccccc1Nc1cc(C(=O)NCCN2CCCCCC2)c2ccccc2n1	x	104	88	101
CCn1c(=N)n(CC(O)COc2ccccc2)c2ccccc21 (stereo unspecified)	-9	117&104	84&96	108&98
CCOc1cc(C2C(C(=O)OCC3CCCO3)=C(C)NC3=C2C(=O)CCC3)cc(Br)c1O (stereo unspecified)	-3	x	x	106
CC(Nc1n[nH]c(=O)[nH]c1=O)C(=O)N/N=C/c1ccccc1 (stereo unspecified)	-13	98	110	104
COc1ccc(Cl)cc1NC(=O)CSc1nccn1Cc1ccco1	x	118	88	103
O=C(Cn1ncc2ccsc2c1=O)N1CCN(c2cccc(Cl)c2)CC1	3	102	90	102
Cc1ccccc1NS(=O)(=O)c1ccc2[nH]cc(C(=O)N3CCCC3)c(=O)c2c1	x	119	97	110
O=S(=O)(c1ccc(-c2cc(C(F)(F)F)no2)s1)N1CCCc2ccccc21	-9	90	103	101
CC(C)(C)C(=O)OCC1OC(n2cnc(C(N)=O)n2)C(O)C1O (stereo unspecified)	1	96	97	106
O=C(NCC(c1ccco1)N1CCc2ccccc21)c1ccccc1 (stereo unspecified)	-38	75	87	102
CCOc1ccc(NC(=O)c2noc3ncnc(N4CCOCC4)c23)cc1	13	x	x	110
CN(C(=O)c1cc2nc(-c3ccco3)cc(C(F)(F)F)n2n1)C1CCCCC1	x	104	93	101
C=CCOc1cccc(C(=O)NCc2ccccc2)c1	-20	95	100	108
Cn1c(=O)c2nc(-c3ccccc3I)oc2c2ccccc21	x	98	82	99
Nc1nonc1C(=O)OCc1ccccc1Cl	-7	74	74	112
OC(CSc1ccc(F)cc1)CN1CCN(c2ccc(C(F)(F)F)cn2)CC1 (stereo unspecified)	-14	96	95	99
CCSc1nn2c(=O)cc(CSc3nc(C)cc(=O)[nH]3)nc2s1	26	x	x	103
CN(Cc1ccccc1)C(=O)CSc1nc(NCc2ccc(Cl)cc2)c2ccccc2n1	x	84	80	99
CC(Sc1nc2ncccc2[nH]1)C(=O)N(C)c1ccc(F)cc1 (stereo unspecified)	-8	x	x	101
CC(=O)Nc1ccc(NC(=O)c2cnn(-c3ccccc3)c2C2CCN(C(=O)OC(C)(C)C)CC2)cc1	-20	100	85	103
COc1ccc(CCN2COc3ccc4c5c(oc4c3C2)C(=O)c2ccccc2C5=O)cc1OC	-61	87	70	x
CN(C)c1ccc(NC(=O)C(C)(C)C)c(C(=O)O)c1	-31	x	x	100
N#Cc1c(-c2ccco2)cc(-c2ccccc2)nc1SCc1nc2ccccc2[nH]1	-12	97	84	x
Cc1ccc(CN(CC(=O)O)Cc2cn(-c3ccccc3)nc2-c2cccs2)cc1	x	89	85	104
CC1=C(C(=O)OCC2CCCCC2)C(c2cccc(OCc3ccccc3)c2)NC(=O)N1 (stereo unspecified)	7	x	x	104
CCOc1ccc(N(CC(=O)NCc2ccc(Cl)cc2)S(=O)(=O)c2c(C)noc2C)cc1	-30	93	92	103
CNC(=O)C(C)n1c2ccccc2c2cn[nH]c(=O)c21 (stereo unspecified)	x	83	88	104
Cc1nn(CCC(=O)NCc2ccccc2)c(=O)c2nn(-c3ccccc3)c(C)c12	-30	102	96	104
O=C(/C=C1/SC(=O)NC1=O)Nc1nccs1	-61	98	82	x
O=C(Cn1cnc2ccccc2c1=O)OCc1ccccc1	14	105	101	x
O=S(=O)(c1ccc(F)c(Cl)c1)N1CCN(c2cc(-c3cccc(F)c3)ncn2)CC1	-32	x	x	98
COC(=O)c1ccc(NC(=O)CSc2nc3cc4c(cc3cc2C#N)OCCO4)cc1	-6	108	106	104
O=C(CN1C(=O)CSc2ccc(C(=O)N3CCCC3)cc21)NCc1ccc(Cl)cc1	-15	x	x	107
COc1ccc(CNC(=O)C2CCN(S(=O)(=O)c3cnc[nH]3)CC2)cc1	x	84	77	101
CCOc1ccc(CN(Cc2ccc(OC)cc2)S(=O)(=O)c2ccc(S(=O)(=O)N3CCCCC3)cc2)cc1	-29	x	x	101
CCN(CC)S(=O)(=O)c1ccc2c(c1)nc(CN(C)S(=O)(=O)Cc1ccccc1)n2C	-14	x	x	103
Nc1nc2ccccc2n1CCOc1ccc(Br)cc1	x	107	82	102
Cc1nc(N)[nH]c(=O)c1CCO	-6	103	89	96
Cc1cc(N/C=C(\C#N)C(=O)c2cccs2)no1	-6	96	96	153
CC(C)c1ccc(NCc2nc(-c3ccc(Cl)cc3Cl)no2)cc1	x	98	69	94
O=C(COC(=O)c1ccc(Br)o1)Nc1cccc2ccccc12	-12	112	86	x
O=C(Nc1cccnc1)c1cccnc1C(=O)O	-30	103	101	109
CCCCCOc1ccc(C2Oc3ccc(Br)cc3C3CC(c4ccc(OC)cc4)=NN32)cc1 (stereo unspecified)	-10	x	x	109
COc1ccc(NC(=O)c2c(NCc3cccs3)sc3c2CCCC3)c(OC)c1	x	111	107	103
CS(=O)(=O)C1=NN2C(=N)/C(=C\c3ccc(-c4ccc(Cl)cc4)o3)C(=O)N=C2S1	-5	42	42	102
Cn1c(C(=O)NCCc2ccccc2)cc2sc(Cl)cc21	1	96	105	99
O=C(Cc1ccccc1)NCCCl	-15	x	x	99
CC1=NN(c2ccc(S(N)(=O)=O)cc2)C(=O)C1	-38	90	80	99
CN1CCN(NC(=S)N=P(c2ccccc2)(N2CCOCC2)C(C)(C)C)CC1 (stereo unspecified)	-14	96	93	x
O=c1cc(-c2ccc(Cl)cc2)oc(=O)[nH]1	-26	92	64	102
Other records follow:
SMILES	HCMV NEC inh	Sa growth inh	Sa growth inh second temp	GIV-Gai inh
O=C(CSc1nnc(NC2CC2)s1)c1ccc2c(c1)OCO2	-31	93	76	x
NC(=O)c1cc(-c2ccccc2)nc2ccccc12	-35	106	92	x
O=C(c1cc2ccc3cccnc3c2[nH]1)N1CCN(c2cccc(C(F)(F)F)c2)CC1	x	98	97	100
O=C(COC(=O)CC1CCCC1)Nc1nnc(-c2ccccc2)o1	-11	21	1	x
CCOC(=O)c1[nH]c2c(c1C)C(=O)CCC2	-17	99	90	x
CCn1c(SCC(=O)OCC(=O)N2c3ccccc3NC(=O)C2(C)C)nnc1-c1ccco1	8	95	96	x
Cc1cccc(NC(=O)Cn2nnc(C(=O)O)c2C(=O)O)c1C	-11	x	x	101
CC(=NCc1ccccn1)c1c(O)c2ccccc2n(-c2ccccc2)c1=O	-12	91	84	x
Cc1c(C(=O)OCC(=O)Nc2ccc(SC(F)F)cc2)oc2ccc(Br)cc12	2	97	94	x
Clc1ccc(CNc2nc(Cl)nc(NCCN3CCOCC3)n2)cc1	3	100	104	108
O=C(NC(NCc1ccco1)(C(F)(F)F)C(F)(F)F)c1cccnc1	-9	90	88	107
Cc1nc2c(c(C)c1CCC(=O)NCCOc1cccc(C(F)(F)F)c1)c(=O)n(C)c(=O)n2C	-17	79	72	100
CCn1c2ccccc2c2cc(NS(=O)(=O)c3ccccc3)ccc21	x	108	78	105
COc1ccc(C)cc1NC(=O)Cc1cn(C)c2ccccc12	11	109	75	107
CCc1ccc(NC(=O)CSc2ccccn2)cc1	-8	111	89	102
COC(=O)c1sccc1Oc1cc(C(F)(F)F)nc2c(C(=O)OC)scc12	-19	75	81	98
Cc1nc2c(c(C)nn2-c2ccccc2)c(C)c1CCC(=O)Nc1ccc(F)cc1	-9	114	91	97
Cc1cc(C)cc(N(CC(=O)NCc2ccc3c(c2)OCO3)S(=O)(=O)c2c(C)nn(C)c2C)c1	-3	x	x	99
O=C(CCSCc1ccc(Cl)cc1)Nc1cccnc1	4	94	93	x
CCOC(=O)CS(=O)(=O)c1ccc(C(F)(F)F)cn1	-14	93	89	106
COc1ccc(-c2cc(N3CCOCC3)nc(C)n2)cc1	3	x	x	103
O=C(Cc1ccsc1)N1CCC(n2nc(-c3ccccc3)oc2=O)CC1	-15	x	x	107
C=CCn1cnc2c(cnn2-c2ccc(C)c(C)c2)c1=O	-23	x	x	99
CN1C(=O)c2ccccc2C(C(=O)N2CCCCCC2)C1c1cccs1 (stereo unspecified)	-10	101	92	98
CCN(CC)C(=O)Cc1cccs1	-1	90	90	x
CCc1nc2ccccc2n1C(=O)CCC(=O)O	-1	96	91	x
NCC(O)C1CCCCCCC1 (stereo unspecified)	-17	x	x	103
COc1cccc(C(=O)OCc2ccccc2C(F)(F)F)c1O	-22	81	82	x
Cc1cc(=O)n(Cc2ccc(F)cc2Cl)c2c1c(C)nn2-c1ccccc1	x	89	86	100
CCOC(=O)N1CCC(NC(=O)C(C)n2nc(C)c3sc4ccccc4c3c2=O)CC1 (stereo unspecified)	-31	93	77	99
CCOC(=O)c1nc(N2CCCCC2)c2c(C)noc2n1	-42	x	x	118
COc1ccccc1CNC(=O)CCCCn1c(=O)c2ccccc2n(Cc2c(C)cc(C)cc2C)c1=O	-4	100	89	101
Cc1cc(F)ccc1NC(=O)CN(C)S(=O)(=O)c1ccc(C(=O)N2CCOCC2)s1	x	100	87	105
Cc1[nH]c(C)c(S(=O)(=O)N2CCC(C(=O)N3CCc4ccccc43)CC2)c1C(=O)N1CCCC1	-12	x	x	110
CCCCn1c(CCNC(=O)c2ccc(Cl)cc2)nc2ccccc21	x	106	63	98
COc1cccc(NC(=O)CSCc2cc(=O)c3ccc(C)c(C)c3[nH]2)c1	x	86	87	98
Cc1ccc(-c2cn3cccnc3n2)cc1NC(=O)Nc1ccc(F)cc1	-19	103	103	103
Cc1cc(C(=O)NCC(=O)O)c(C)o1	1	96	84	95
Cc1cc(C)c(S(=O)(=O)N2CCCc3ccccc32)c(C)c1	-19	91	87	x
Cc1ccc(OCCn2c(CNc3ccccc3C)nc3ccccc32)cc1	-8	95	99	106
CCCOc1ccc(C2C(=O)N(C3CCCCC3)CC(=O)N2CCC2=CCCCC2)cc1OC (stereo unspecified)	x	108	93	103
O=C(O)c1c2c(nc3ccccc13)C(=O)N(C1CCCCC1)C2	-58	87	80	100
Cc1ccc(NC2=NCCC2)cc1	-9	72	88	x
CC(C)=C1C2C=CC1C1C(=O)N(C(C)C)C(=O)C21 (stereo unspecified)	-3	86	82	103
CCC(=O)Nc1ccc2c(c1)N(C(C)=O)c1ccccc1CC2	-34	87	81	105
O=C(Cc1ccc(NC(=O)N2CCCCc3ccccc32)cc1)NCc1ccccc1	x	102	89	96
Cc1cc(C(=O)NCCN2CCCCC2)no1	-3	97	78	94
Cc1ccc(CNC(=O)Cn2ccn(-c3ccc(F)c(F)c3)c(=O)c2=O)cc1	-24	120	88	99
CC(C)(C)C1CCc2c(sc(NC(=O)c3ccco3)c2C(=O)Nc2ccccc2Cl)C1 (stereo unspecified)	17	99	99	99
Cc1ccc(C)c(NC(=O)c2cccc(S(=O)(=O)N3CCCC3)c2)c1	10	103	98	x
CCCN(CCC)C(=O)c1nn(C)c2c1CSc1ccc(C)cc1-2	x	72	74	98
